# Screening results as filed in PubChem BioAssay.
# Autofluor counter: compound fluorescence in toxin protease inhibitor counterscreen. compound autofluorescence counterscreen, microsphere flow cytometry; stronger effect = higher value. fluorescence intensity (no concentration beside the values). 360,000 tested, 3.1% active. AID 624483;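 active means at least 3 SD above the mean of all compounds, about 16000 in these data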;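 further: 100 nL of 1 mM stock went into each well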
# Mtb hypoxia inh: inhibitors of hypoxia-regulated fluorescent reporter in Mycobacterium tuberculosis. M. tuberculosis hypoxia-regulated fluorescent reporter, fluorescence. fluorescence inhibition, % (concentration not given with the values). 300,000 tested, 0.1% active. AID 1159583;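 active means 35 to 45% if threefold the growth effect, above 45% if 1.5-fold the growth effect; inactive means the rest, general growth blockers included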;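 further: wells of about 50 µL received 100 nL stock; 0% = vehicle wells and 100% = reference inhibitor wells; whole bacteria with a GFP reporter of the hypoxia response; strong numbers were not always called active; many hits fall short of the cut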
# RN4220 kill: S. aureus RN4220 growth inhibition; 330,000 tested, 0.33% active; AID 1259311; OD600, 16 h; inhibition, % (no concentration beside the values);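 active means z-score of -3 or lower and OD600 up to 0.18 on both plates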;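 further: plate controls were untreated cells for no effect and reference antibiotic for full effect; stock transfer was 100 nL into about 80 µL; one replicate is shown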
# BJeLR lethal: kills HRASV12-expressing BJeLR cells. BJeLR (HRASV12) viability, CellTiter-Glo ATP luminescence, 48 h; reference of the scale not given here. inhibition, % (concentration not given with the values). 300,000 tested, 0.17% active. AID 1554;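 active means replicate mean above 50%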;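 further: 50 nL library stock added to about 25 µL; numbers are from one replicate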
# Sa ugtP lethal: compounds lethal to S. aureus RN4220 ugtP deletion mutant. OD600 growth, 16 h; some inactives read as strong as hits. growth inhibition, % (test concentration not listed). 330,000 tested, 0.54% active;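 active means z-score under -3 and OD600 up to 0.15 on both plates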;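 further: plate controls were untreated wells for no effect and antibiotic for full effect; wells of about 80 µL received 100 nL stock; the first replicate is given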
# PrP 5UTR inh: inhibition of PrP 5' UTR reporter expression; cell-based PrP 5' UTR mRNA reporter, plate reader; inhibition, % (test concentration not listed); 340,000 tested, 0.35% active;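 active means every replicate at 50% or more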;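 further: 0 = median of the neutral control wells; tested in H4 reporter cells; numbers are from one replicate; inactives centre near -14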
# Mtb hypoxia inh growth: second read-out of Mtb hypoxia inh, no call of its own (marks repeat the call); growth inhibition, %; measured here: M. tuberculosis growth (absorbance);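 0% = vehicle and 100% = reference antibiotic; read after six days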
# Numbers without * were called inactive; . = not tested or not shown.
1	C=CCC(NCc1ccccc1)c1ccccc1 (stereo not given)
2	O=C(NCc1ccc2c(c1)OCO2)C1CCC(CNc2c(N3CCCC3)c(=O)c2=O)CC1 (stereo not given)
3	CCn1c(SCC(=O)Nc2ccccc2)nc2ccccc2c1=O
4	COc1ccc(NC(=O)CCC(=O)c2ccc(Cl)cc2)cn1
5	COc1ccc(C=NNC(=S)Nc2ccccc2[N+](=O)[O-])cc1O
6	CN(C)CCC(C(=O)c1ccccc1)c1ccncc1 (stereo not given)
7	CN1CCN(N=Cc2cccc(Cl)c2Cl)CC1
8	Cc1nnc(C)n1/N=C/c1ccc2c(c1)OCCO2
entry no.	1	2	3	4	5	6	7	8
Autofluor counter	2142	5510	4304	3633	.	3482	.	7596
Mtb hypoxia inh	8.4	-9.6	4.7	-5.1	14.3	0.1	17.8	.
Mtb hypoxia inh growth	6.1	-1.8	-2.0	-4.5	3.3	2.4	4.1	.
RN4220 kill	4.6	1.1	2.9	-5.0	9.6	1.6	13.6	.
BJeLR lethal	5.6	1.8	16.0	.	.	.	.	6.5
Sa ugtP lethal	-0.6	-0.7	7.1	-6.8	4.2	0.4	0.6	.
PrP 5UTR inh	6.1	-21.7	-12.9	-27.6	.	-6.6	.	-6.5

9	O=C(CSc1nc2ccc(Cl)cc2[nH]1)c1ccc2c(c1)OCO2
10	Cn1cccc1C(=O)NNC(=O)c1ccccc1Br
11	CSc1nc(-c2ccc(Cl)cc2)c(C#N)c(=O)[nH]1
12	COc1ccc(Cn2ccnc2SCC(=O)Nc2ccccc2)cc1
13	CCc1[nH]c(=S)c(C#N)c(-c2ccccc2)c1C(=O)OC
14	O=C(NC(=S)N1CCCCC1CO)c1cc(Br)ccc1Cl (stereo not given)
15	C=CCN(c1ccc(C(=O)NC(C)C)cc1)S(C)(=O)=O
16	Cc1cc(C)c2c(CN3CCN(Cc4ccc5c(c4)OCO5)CC3)cc(=O)oc2c1C
entry no.	9	10	11	12	13	14	15	16
Autofluor counter	9860	5837	2275	5546	1911	6487	23751*	4264
Mtb hypoxia inh	-0.1	2.1	-9.5	-5.5	11.0	-3.8	7.3	.
Mtb hypoxia inh growth	2.0	13.8	2.7	-4.6	6.5	10.3	5.0	.
RN4220 kill	5.7	1.5	13.7	-5.1	7.7	1.3	0.1	-5.1
BJeLR lethal	-15.0	5.2	-1.6	1.6	-3.6	.	4.7	-3.0
Sa ugtP lethal	-0.3	-4.1	9.7	-3.7	7.9	0.4	-1.2	-11.0
PrP 5UTR inh	-19.8	-47.2	-21.9	-5.6	-18.7	-6.1	-4.6	-23.1

17	CSc1nc(C)cc(OCNC(=O)c2cccs2)n1
18	O=C(CCN1C(=O)c2ccc(Br)cc2C1=O)NC1CCCCC1
19	Cc1cccc(NC(=O)C2CC(=O)N(c3ccccc3)C2)c1C (stereo not given)
20	Cn1nc(C(=O)NCc2cccc(Cl)c2)c2c1-c1ccccc1S(=O)(=O)C2
21	COc1cc(SC)ccc1C(=O)Nc1nc(C)cs1
22	COC(=O)Nc1ccc(Cc2ccncc2)cc1
23	CCCCCCCCN1C(CC(=O)OCC)c2cc(F)ccc2S1(=O)=O (stereo not given)
24	O=C(O)c1ccc(OCC2CCCO2)cc1 (stereo not given)
entry no.	17	18	19	20	21	22	23	24
Autofluor counter	11227	5555	2154	5998	4316	2982	.	3267
Mtb hypoxia inh	2.1	5.5	.	4.4	16.8	-3.4	2.5	-0.6
Mtb hypoxia inh growth	4.2	5.4	.	5.2	8.5	-1.9	2.6	14.9
RN4220 kill	4.9	0.6	0.2	6.2	12.7	1.0	5.1	1.9
BJeLR lethal	-9.8	2.8	-1.4	6.4	22.2	10.9	.	-1.2
Sa ugtP lethal	-0.1	3.0	3.8	17.7	6.3	10.4	4.7	3.8
PrP 5UTR inh	-15.0	-8.4	-3.0	-22.5	87.0*	-13.4	.	-15.8

25	Cc1cc(C)n(-c2nc(Nc3ccccc3C)nc(-n3nc(C)cc3C)n2)n1
26	O=C1CC(N(Cc2ccc3c(c2)OCO3)C(=O)Nc2ccc(F)cc2)C(=O)N1c1ccccc1 (stereo not given)
27	COC(=O)c1cccc(NC(=O)c2cnoc2C)c1
28	Cc1cc(C)nc(SCC(=O)Oc2ccc3oc(=O)cc(C)c3c2)n1
29	O=C(CSc1nnc(-c2cccnc2)n1-c1ccc(F)cc1)NCc1ccc2c(c1)OCO2
30	C/C(=N\NC(=O)c1cc(C2CC2)nc2ccccc12)c1ccc(O)cc1O
31	CCC(C)[C@H](NC(=O)NC1CCCc2ccccc21)C(=O)OC (stereo not given in full)
32	O=C(O)c1ccc(CN2CCCCC2)o1
entry no.	25	26	27	28	29	30	31	32
Autofluor counter	.	23094*	9647	2792	4383	5937	3455	7316
Mtb hypoxia inh	1.7	12.7	-13.0	.	4.1	.	17.5	6.2
Mtb hypoxia inh growth	8.6	7.9	-0.6	.	10.5	.	13.4	5.6
RN4220 kill	2.5	5.2	-6.8	-2.0	-0.8	.	1.8	-0.2
BJeLR lethal	-3.6	.	1.1	1.5	-1.6	16.9	0.0	-13.0
Sa ugtP lethal	-19.2	-0.3	-11.3	-0.1	5.3	.	3.1	4.8
PrP 5UTR inh	.	-4.9	-21.5	-30.8	-3.6	40.3	-7.7	-17.1

33	Clc1cc(Br)ccc1NCc1cccnc1
34	OC1(c2ccccc2F)CCN(Cc2nnnn2CCc2ccccc2)CC1
35	COc1cc(C(=O)NCC(=O)Nc2ccc(F)c(F)c2)ccc1OCC(=O)N1CCOCC1
36	COc1ccc(C2CC(=O)C=C(c3cccc4c3sc3ccccc34)C2)cc1OC (stereo not given)
37	COc1cccc(OC)c1C(=O)N1CCN(c2c(Cc3ccccc3)c(C)nc3ncnn23)CC1
38	COc1ccc(CC(=O)N2CCCC2)c(OC)c1
39	CS(=O)(=O)N(CC(=O)NCc1ccccc1Cl)c1cccc([N+](=O)[O-])c1
40	CC(=NCCc1ccccc1)C1=C(O)CSC1=O
entry no.	33	34	35	36	37	38	39	40
Autofluor counter	3140	12358	6482	.	26771*	3830	4464	2001
Mtb hypoxia inh	6.1	7.3	1.7	0.7	-0.5	4.5	-0.3	.
Mtb hypoxia inh growth	-3.5	5.2	6.4	-7.1	4.2	-0.3	4.2	.
RN4220 kill	6.2	5.8	1.1	1.0	6.6	2.5	4.5	-0.6
BJeLR lethal	5.9	-19.5	5.2	.	-4.2	7.2	10.3	-1.5
Sa ugtP lethal	-10.2	-2.8	1.4	13.5	4.2	8.8	7.7	7.2
PrP 5UTR inh	-1.9	-13.9	10.7	.	-15.2	-9.0	-29.9	-9.2

41	Cc1cnc(C(=O)OCC(=O)N2c3ccccc3NC(=O)C2(C)C)cn1
42	O=C(NC1CCN(Cc2ccccc2)CC1)c1cccc(S(=O)(=O)Nc2ccc(SC(F)F)cc2)c1
43	c1ccc2c(c1)nc(NCc1ccc3c(c1)OCO3)n2CCN1CCOCC1
44	Cc1ccc(C(=O)NN=C2CCCc3ccccc32)c(C)c1
45	CC1CCCC(NC(=O)COC(=O)CCc2ccccc2)C1C (stereo not given)
46	Cc1ccc(-c2cc(C(=O)N/N=C/c3c(C)nn(C)c3C)c3ccccc3n2)c(C)c1
47	CSCC[C@H](NC(=O)Cc1c(C)c2c(cc(C)c3c(C)coc32)oc1=O)C(=O)O
48	Cc1ccc(S(=O)(=O)N2CCN(c3nn(C)c(=O)n(C)c3=O)CC2)cc1C
entry no.	41	42	43	44	45	46	47	48
Autofluor counter	3936	4349	2649	.	4358	3592	3794	3075
Mtb hypoxia inh	6.8	0.1	6.5	6.1	9.2	.	-9.3	21.0
Mtb hypoxia inh growth	8.5	14.6	10.6	-18.2	2.0	.	-5.8	30.2
RN4220 kill	5.4	2.0	1.7	-1.4	1.7	.	-0.5	5.1
BJeLR lethal	3.2	.	14.6	.	8.7	-5.6	2.5	.
Sa ugtP lethal	4.9	-0.4	5.3	2.1	3.0	.	3.4	10.6
PrP 5UTR inh	-22.2	-24.7	-11.4	.	-14.4	-3.8	-27.3	13.3

# Taken from above:
# entry 42 | Sa ugtP lethal: -0.4
# entry 47 | Autofluor counter: 3794
# entry 43 | Mtb hypoxia inh: 6.5

# Down the list, as entered above:
# RN4220 kill, compounds 41 to 48, in order: 5.4, 2.0, 1.7, -1.4, 1.7, ., -0.5, 5.1

# 4 neighbouring compounds from above:
41	Cc1cnc(C(=O)OCC(=O)N2c3ccccc3NC(=O)C2(C)C)cn1
42	O=C(NC1CCN(Cc2ccccc2)CC1)c1cccc(S(=O)(=O)Nc2ccc(SC(F)F)cc2)c1
43	c1ccc2c(c1)nc(NCc1ccc3c(c1)OCO3)n2CCN1CCOCC1
44	Cc1ccc(C(=O)NN=C2CCCc3ccccc32)c(C)c1
entry no.	41	42	43	44
Autofluor counter	3936	4349	2649	.
Mtb hypoxia inh	6.8	0.1	6.5	6.1
Mtb hypoxia inh growth	8.5	14.6	10.6	-18.2
RN4220 kill	5.4	2.0	1.7	-1.4
BJeLR lethal	3.2	.	14.6	.
Sa ugtP lethal	4.9	-0.4	5.3	2.1
PrP 5UTR inh	-22.2	-24.7	-11.4	.

# The listing continues.
49	Cc1ccc(C=NNc2nc(N3CCCCC3)nc(N3CCCCC3)n2)o1
50	CCc1cc(C(=O)NNC(=S)Nc2ccccc2C)cs1
51	Cc1ccc(C(=O)C(C)OC(=O)CCN2C(=O)C3C4C=CC(C5CC45)C3C2=O)cc1 (stereo not given)
52	O=C(CCNC(=O)c1ccccc1)NNC(=O)COc1ccccc1Cl
53	COc1ccccc1Nc1nnc(SCC(=O)Nc2cc(C)on2)s1
54	NS(=O)(=O)c1ccc(N=Nc2c(O)c(C(=O)O)cc3ccccc23)cc1
55	N#Cc1cnc(Sc2ccccc2)nc1
56	C=CCn1c(C)cc(C(=O)CSc2nc3ccccc3[nH]2)c1C
entry no.	49	50	51	52	53	54	55	56
Autofluor counter	.	9786	8214	4610	3404	3676	3785	23335*
Mtb hypoxia inh	7.5	0.5	2.2	-3.0	-3.3	20.8	14.2	17.4
Mtb hypoxia inh growth	3.5	6.2	2.9	3.8	6.6	6.1	16.3	15.0
RN4220 kill	2.0	-0.4	4.3	1.2	14.2	3.4	10.9	6.9
BJeLR lethal	.	3.1	9.2	.	18.6	17.4	6.3	-6.0
Sa ugtP lethal	1.9	-1.8	5.6	1.4	0.0	0.6	4.5	0.8
PrP 5UTR inh	.	-57.5	-12.7	10.6	-37.4	-20.2	-9.3	-34.4

# The list goes on, starting with the last 4 of the part before.
53	COc1ccccc1Nc1nnc(SCC(=O)Nc2cc(C)on2)s1
54	NS(=O)(=O)c1ccc(N=Nc2c(O)c(C(=O)O)cc3ccccc23)cc1
55	N#Cc1cnc(Sc2ccccc2)nc1
56	C=CCn1c(C)cc(C(=O)CSc2nc3ccccc3[nH]2)c1C
57	Cc1ccccc1NC(=O)CN1CCN(C)CC1
58	O=C(c1cc2cc(Br)ccc2oc1=O)N1CCN(c2ccccn2)CC1
59	O=C(COC(=O)c1ccc([N+](=O)[O-])s1)Nc1ccc(Cl)cn1
60	COc1ccccc1C(=O)NN=C/C(C)=C/c1ccccc1
61	Cc1nccn1-c1ccc(C=O)cc1
62	COC(=O)[C@@H]1C[C@@]2(O)[C@@H](O)[C@@H](O)[C@@H](O)C[C@H]2N1Cc1ccc(-c2ccccc2)cc1
63	CCN(CC)c1ccc(NC(=O)CCNC(=O)c2ccco2)cc1
64	CCC(C(=O)Nc1cccnc1Cl)c1ccccc1 (stereo not given)
entry no.	53	54	55	56	57	58	59	60	61	62	63	64
Autofluor counter	3404	3676	3785	23335*	3582	16477*	2043	.	5786	3235	1955	3636
Mtb hypoxia inh	-3.3	20.8	14.2	17.4	0.8	-1.1	-1.5	13.9	0.0	.	6.4	-4.1
Mtb hypoxia inh growth	6.6	6.1	16.3	15.0	-7.3	-4.6	4.6	-1.5	10.7	.	-2.8	-3.0
RN4220 kill	14.2	3.4	10.9	6.9	1.5	5.3	6.3	6.3	2.5	.	4.9	0.3
BJeLR lethal	18.6	17.4	6.3	-6.0	-2.4	-1.0	-0.9	.	0.9	13.7	-1.1	-0.8
Sa ugtP lethal	0.0	0.6	4.5	0.8	6.6	9.1	-18.7	11.0	-3.8	.	8.0	1.2
PrP 5UTR inh	-37.4	-20.2	-9.3	-34.4	2.1	-4.8	-0.9	.	-14.8	-17.2	-36.4	-2.3
